Methyltransferases = Primary Screen for Target Class Profiling of Small Molecule Inhibitors of Methyltransferases. 25,000 compounds, 3.9% hits. purified enzyme, MTase-Glo SAH luminescence; stronger effect = lower value. calls only at 40 µM; active = -50% or lower on at least one of six enzymes; inconclusive = the cases between; inactive = as a rule above -30% on all six;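 note: enzymes were COMT GAMT GNMT HNMT NNMT and PNMT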
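Each enzyme was assayed with SAM and its substrate. SAH formation detected by MTase-Glo luminescence; single-point 40 uM screen[…].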
Calls only; i = inactive; ? = inconclusive. % is set by controls: 0 for no effect and ±100 for the full control effect. This is a subset; count on the stated rates, not on these rows.

SMILES	Methyltransferases
O=C(CCc1nnn2c1CN(C(=O)NCc1ccccc1)CC2)N1CCCC1	i
COc1ccc(CN2C(=O)c3cc(-c4ccccc4)nn3CC2(C)C(=O)NCc2ccccc2)c(OC)c1 (configuration not stated)	i
CCOC(=O)c1cc2n(n1)CC(C)(C(=O)NC1CCCC1)N(c1ccccc1F)C2=O (configuration not stated)	i
Cc1ccc(NC(=O)CSc2nnc3n(Cc4ccccc4)c(=O)c4ccccc4n23)cc1C	i
Cc1ccccc1N1CCN(S(=O)(=O)C[C@]23CCC(CC2NC(=O)[C@@H](N)CCS(C)(=O)=O)C3(C)C)CC1 (some centres not stated)	?
CC(C)OCCCNC(=O)C1(C)Cn2c(cc3ccccc32)C(=O)N1Cc1cccc(Cl)c1 (configuration not stated)	i
CC(C)CNC(=O)N(C)C1CCc2nn(C)c(=O)n2CC1 (configuration not stated)	i
O=S(=O)(NCc1cccnc1-c1ccc(F)cc1)c1ccc(F)cc1	i
O=C(Cn1ccc2cc(S(=O)(=O)N3CCCC3)ccc21)NCc1ccccc1	i
COC[C@@H](c1ccc(C(F)(F)F)cc1)N1CCN(C2(C)CCN(C(=O)c3c(C)ncnc3C)CC2)C[C@@H]1C	?
CC(C)Cn1c(=O)c2ccc(C(=O)NC3CCCCC3)cc2n2c(SCC(=O)NC(C)C)nnc12	i
COCCCN1C(=O)c2cc(-c3ccc(OC)cc3)nn2CC1(C)C(=O)NCc1ccccc1OC (configuration not stated)	i
CCCn1c(=O)c2ccc(Cl)cc2n2c(SCC(=O)Nc3cccc(C)c3)nnc12	i
CCC[C@@H]1CN(C(=O)c2cc(-c3cccs3)n(C)n2)C[C@H]1N(C)C	i
CN1CCN(CCN2C(=O)c3ccc(-c4ccco4)n3CC2(C)C(=O)NC2CCCC2)CC1 (configuration not stated)	i
CCOc1ccc(N2C(=O)c3cc4ccccc4n3CC2(C)C(=O)NC2CCCC2)cc1 (configuration not stated)	i
CCc1c(C(=O)Nc2cc(S(=O)(=O)N(CC)CC)ccc2O)[nH]c(C)c1C(C)=O	?
COc1ccccc1CNC(=O)C1c2c(n(C)c3ccccc23)SCC(=O)N1Cc1cccs1 (configuration not stated)	i
COc1cccc(C(=O)NCCNc2nc3cc(C)cc(C)c3cc2C#N)c1	i
CCCN1CC2(CCN(Cc3nc(CCOC)no3)CC2)CC1C(=O)O (configuration not stated)	i
CN(CC[C@H]1CN(C(=O)Cc2cccs2)CC[C@H]1CC(=O)O)c1ccccc1	i
Cc1ccc(NC(=O)N2CC(n3cc(C(=O)NCc4ccncc4)nn3)C2)cc1C	i
O=C(NCc1cccnc1)[C@@H]1C[C@@H](O)CN1C1CCN(C(=O)COc2ccccc2)CC1	i
CC1CCC2(C(=O)O)CCC3(C)C(=CCC4C5(C)C[C@@H](O)[C@@H](O)C(C)(CO)C5CCC43C)C2C1(C)O (some centres not stated)	i
O=C(c1ccncc1)N1CCC(Nc2cccnc2)C1 (configuration not stated)	i

Some of these compounds in order of length of the SMILES, smallest number first.
SMILES	Methyltransferases
CC(C)CNC(=O)N(C)C1CCc2nn(C)c(=O)n2CC1 (configuration not stated)	i
CCCN1CC2(CCN(Cc3nc(CCOC)no3)CC2)CC1C(=O)O (configuration not stated)	i
O=C(Cn1ccc2cc(S(=O)(=O)N3CCCC3)ccc21)NCc1ccccc1	i
COc1ccccc1CNC(=O)C1c2c(n(C)c3ccccc23)SCC(=O)N1Cc1cccs1 (configuration not stated)	i
COC[C@@H](c1ccc(C(F)(F)F)cc1)N1CCN(C2(C)CCN(C(=O)c3c(C)ncnc3C)CC2)C[C@@H]1C	?
CC1CCC2(C(=O)O)CCC3(C)C(=CCC4C5(C)C[C@@H](O)[C@@H](O)C(C)(CO)C5CCC43C)C2C1(C)O (some centres not stated)	i

Additional records follow:
SMILES	Methyltransferases
C=C[C@@]1(C)CCC2C(=CCC3[C@]2(C)CCC[C@@]3(C)C(=O)O)C1 (some centres not stated)	?
Cc1nnc2n1CCC(N(C)C(=O)NCCc1ccccc1)CC2 (configuration not stated)	i
CCNC(=O)NC1(CCOC)CCN(C(=O)c2ccoc2)CC1	i
COc1cccc(CN2C(=O)c3cc4oc(C)cc4n3CC2(C)C(=O)NC2CCCCC2)c1OC (configuration not stated)	i
CC(C)CCn1c(=O)c2ccc(C(=O)NC3CCCC3)cc2n2c(=O)n(Cc3ccccc3)nc12	i
Nc1ncnc2c1ncn2C1CCCO1 (configuration not stated)	i
CCCn1c(=O)c2ccc(C(=O)NCC(C)C)cc2n2c(=O)n(CC(=O)Nc3cccc(Cl)c3)nc12	i
CN(C)c1ccc(CN2C(=O)c3cc(-c4ccccc4)nn3CC2(C)C(=O)NCc2ccccc2)cc1 (configuration not stated)	i
O=C(C[C@@H]1O[C@H](CNC(=O)Nc2ccccc2)[C@@H](O)[C@H]1O)NC1CC1	i
CCc1ccc(C(=O)N2CCC([C@@H]3CNC[C@H]3CO)CC2)cc1	i
CC(=O)N1Cc2ccccc2CC2(CCCN2Cc2ccccn2)C1 (configuration not stated)	i
CC(c1ccc(-c2cc(N)ncn2)cc1)N1CCCCC1 (configuration not stated)	i
CC1CN(S(=O)(=O)c2cccc3cnccc23)CCN1 (configuration not stated)	i
CCCn1c(=O)c2ccc(C(=O)NCC(C)C)cc2n2c(=O)n(CC(=O)c3ccc(C)cc3)nc12	i
CC(=O)O[C@@H]1[C@@H](CO)O[C@@](CO)(O[C@H]2O[C@H](COC(=O)/C=C/c3ccccc3)[C@@H](O)[C@H](O)[C@H]2O)[C@H]1O	i
CCCNC(=O)O[C@@H]1CC[C@]2(C)[C@H](CC[C@@H](O)[C@H]2CC(=O)N2CCCC2)[C@]1(C)CO	i
COc1ccc(CCNc2nc3c(-c4cccc(F)c4)nnn3c3ccccc23)cc1OC	?
CN(C)c1ccc(C(=O)N[C@H]2CC(C)(C)[C@@H]3C[C@@](C)(O)CC[C@]23CCC(=O)NC2CC2)cc1	i
Cc1cnc(CC2CCN(S(=O)(=O)c3cn(C)cn3)C2)n1Cc1ccccc1 (configuration not stated)	i
Nn1nnc2ccccc21	i
Cc1ccccc1CCN1C(=O)c2cc3ccccc3n2CC1(C)C(=O)NCCC(C)C (configuration not stated)	i
COc1ccc(-c2nc(C3CC3)nc3c2CCN(CCC(C)C)CC3)cc1	i
O=C(CCc1nnc2n(CCc3ccccc3)c(=O)c3ccccc3n12)N1CCN(c2ccc(Cl)cc2)CC1	i
CC(C)Cn1c(=O)c2ccc(C(=O)NC3CCCC3)cc2n2c(=O)n(CC(=O)NC3CCCC3)nc12	i
COc1ccccc1CN(C)C1CCc2ccccc21 (configuration not stated)	?
SMILES	Methyltransferases
COc1ccccc1CNC(=O)C1(C)Cn2c(cc3ccccc32)C(=O)N1Cc1ccccc1F (configuration not stated)	i
CC1(C(=O)NC2CCCCC2)Cn2nc(-c3ccco3)cc2C(=O)N1Cc1ccccc1Cl (configuration not stated)	i
Cc1cc(C(=O)N2CCCC3(C2)Nc2cccnc2NC3=NCc2ccccc2)nn1C (configuration not stated)	i
O=C(c1cc(F)ccc1F)N1CCCCC1c1nc(-c2cnccn2)n[nH]1 (configuration not stated)	i
O=C(NCC1CC1)C1CCCN(C2CCN(Cc3ccncc3)CC2)C1 (configuration not stated)	i
Cc1cc(C)n(CCC(=O)NCC2CCN(c3cc(-c4ccc(Cl)cc4)[nH]n3)CC2)n1	i
OC(COc1ccccc1CNCC1CCOCC1)CN1CCSCC1 (configuration not stated)	i
CC(=O)NC1(C)CN(Cc2ccc(-c3cccc(F)c3)s2)C1	i
CCCc1cc(C)[nH]c(=O)c1CNC(=O)c1cc(-c2ccnc(N3CCN(C)CC3)c2)cc2c1cnn2C(C)C	?
CC(C)(C)C(=O)Oc1ccc(S(=O)(=O)Nc2ccccc2C(=O)NCC(=O)O)cc1	i
CC(C)CNC(=O)c1ccc2c(=O)n(C(C)C)c3nn(CC(=O)NC4CCCC4)c(=O)n3c2c1	i
CCCCOc1ccc(-c2cc3n(n2)CC(C)(C(=O)NC2CCCCC2)N(CCCOC)C3=O)cc1 (configuration not stated)	i
CC1CC(OC(=O)C(O)c2ccccc2)CC(C)(C)C1 (configuration not stated)	i
Cc1cc(NC2CCCCC2)nc(-n2nc(C)cc2C)n1	i
Cc1ccc(C(=O)Nc2noc3ccccc23)cc1	?
Cn1cc(-c2ccncc2)cc1C(=O)N1CCN(c2ccc(F)cc2)CC1	i
COc1ccccc1N1CCN(C(=O)CCc2nnc3n(Cc4ccc(F)cc4)c(=O)c4ccccc4n23)CC1	i
O=C(Nc1ccc(Oc2ccccc2)cc1)O[C@@H]1CO[C@H]2[C@@H]1OC[C@@H]2n1nnnc1-c1ccc(-c2ccccc2)cc1	i
CSc1ccc(CCNC(=O)c2cc3n(n2)CCCN(Cc2ccc(F)cc2)C3=O)cc1	i
COc1ccc(Cl)cc1NC(=O)c1ncn2c1C(=O)N(C1CC1)C(C)(C(=O)NCc1ccc(F)cc1)C2 (configuration not stated)	i
Cn1nnnc1C1CCCN(C(=O)c2ccc(F)cc2)C1 (configuration not stated)	i
O=C1CCN(Cc2ccncc2)CCCC(C(=O)N2CCCC2)CCN1 (configuration not stated)	i
Cc1ccc(CN2C(=O)c3cc4sccc4n3CC2(C)C(=O)NC2CCCC(C)C2C)cc1 (configuration not stated)	i
CO[C@@H]1CC(OC2CCC3(C)C(CCC45CCC(C6=CC(=O)OC6)C(C)(CCC43)C5=O)C2)O[C@H](C)[C@@H]1O[C@@H]1O[C@H](CO[C@@H]2O[C@H](CO)[C@@H](O)[C@H](O)[C@H]2O)[C@@H](O)[C@H](O)[C@H]1O (some centres not stated)	i
O=C(C1CCCC1)N1CC2(CCN(Cc3ccccn3)C2)OCc2ccccc21 (configuration not stated)	i

Part of the list above in a different format:
Cc1ccc(C(=O)Nc2noc3ccccc23)cc1
  Methyltransferases: ?

Cc1ccc(NC(=O)N2CC(n3cc(C(=O)NCc4ccncc4)nn3)C2)cc1C
  Methyltransferases: i

CC1(C(=O)NC2CCCCC2)Cn2nc(-c3ccco3)cc2C(=O)N1Cc1ccccc1Cl (configuration not stated)
  Methyltransferases: i

CN(C)c1ccc(CN2C(=O)c3cc(-c4ccccc4)nn3CC2(C)C(=O)NCc2ccccc2)cc1 (configuration not stated)
  Methyltransferases: i

Other results follow.
SMILES	Methyltransferases
Cc1noc(C)c1C(=O)N1CCN(c2ccc(C=O)cc2)C(=O)C1	i
COc1ccc(CCN2C(=O)c3cc4occc4n3CC2(C)C(=O)NC2CCCCCC2)c(OC)c1 (configuration not stated)	i
Cn1cccc1CN1CC(Oc2ccc(F)cc2F)C1	i
Cc1occc(=O)c1O[C@@H]1O[C@H](CO[C@@H]2OC[C@](O)(CO)[C@H]2O)[C@@H](O)[C@H](O)[C@H]1O	i
Fc1ccccc1CN1CCC[C@H]1c1nc(-c2ccnc(N3CCOCC3)c2)no1	i
O=C(NCc1nc(-c2cccc(F)c2)c(-c2ccccn2)[nH]1)C1CCOC1 (configuration not stated)	i
O=C(CCC1CCCC1)NCc1nnc2cc(-c3nc(C4CC4)no3)ccn12	i
COCCNC(=O)[C@@H]1C[C@H](Oc2ccccc2)CN1C(=O)c1cnccn1	i
O=c1cc(N2CCOCC2)oc2c(Nc3ccccn3)nccc12	i
Clc1cc(NC2CCCCC2)n2nccc2n1	i
Cn1c(=O)[nH]cc(CC(=O)N2C[C@H](C3CC3)[C@@H](N)C2)c1=O	i
Cc1nocc1C(=O)N1C[C@@H](CO)[C@H](c2ccccn2)C1	i
CCCn1c(C)cnc1C1CCN(S(=O)(=O)c2cn(C)cn2)C1 (configuration not stated)	i
COc1ccc(-c2noc(-c3nc(-c4ccc(N(C)C)cc4)no3)n2)cc1OC	i
Cc1ccc(C(=O)Cn2nc3n(Cc4ccccc4)c(=O)c4ccc(C(=O)NC(C)C)cc4n3c2=O)cc1	i
CCCCN1C(=O)c2ccc(-c3ccccc3)n2CC1(C)C(=O)NC1CCCCCCC1 (configuration not stated)	i
c1ccc(Nc2cc3c(cn2)NCCN(Cc2cccs2)C3)cc1	i
C[C@]1(CO)[C@H]2Cc3sc(NC(=O)c4cccs4)nc3[C@@H](CC(=O)O)[C@]2(C)CC[C@H]1O	i
COc1ccc(Cn2c(=O)c3ccccc3n3c(-c4ccc(O)cc4)nnc23)cc1	i
CCNC(=O)C(CC)n1ccc2cc(S(=O)(=O)N3CCCCC3)ccc21 (configuration not stated)	i
COC(=O)N1CCC(n2ncc3c(N4CCOCC4)nc(-c4ccc(NC(=O)NC5CC5)cc4)nc32)CC1	i
O=C(CN1C(=O)CNC1=O)N[C@H](c1ccc2c(c1)CCO2)C1CC(O)C1 (some centres not stated)	i
C=C1CC2[C@]3(C)C(=C(O)C(=O)[C@@]2(C)[C@]2(C(=O)OC)C(=O)C(C)OC(=O)[C@@]12C)C(C)(C)C(=O)CC3O (some centres not stated)	i
CC1(C)CC[C@]2(C(=O)O[C@@H]3O[C@H](CO)[C@@H](O)[C@H](O)[C@H]3O)CC[C@]3(C)C(=CCC4[C@@]5(C)CC[C@H](O[C@@H]6O[C@H](C(=O)O)[C@@H](O)[C@H](O)[C@H]6O)C(C)(C)C5CC[C@]43C)C2C1 (some centres not stated)	i
CN(Cc1ccccc1)Cc1cc(C[C@H]2CNCC[C@H]2CC(=O)NCc2cccs2)no1	i
SMILES	Methyltransferases
N#CC(CCCN1CCC(O)(c2ccc(Cl)cc2)CC1)(c1ccccc1)c1ccccc1	?
CC(C)Cn1c(=O)c2ccc(C(=O)NC(C)C)cc2n2c(=O)n(Cc3ccc(F)cc3Cl)nc12	i
CCC(C)NC(=O)CCc1nnc2n(CCc3ccccc3)c(=O)c3ccccc3n12 (configuration not stated)	i
CCOC(=O)c1cc2n(n1)CC(C)(C(=O)NCc1ccccc1OC)N(c1ccc(OC)cc1)C2=O (configuration not stated)	i
O=C(NCc1ccccc1)N1CCn2cccc2C1Cc1ccccc1 (configuration not stated)	i
CC(NC(=O)c1ccco1)c1nc(-c2ccc(S(=O)(=O)N3CCCC3)cc2)no1 (configuration not stated)	i
CCOC(=O)c1ccc(NS(=O)(=O)c2ccc3[nH]c4c(c3c2)CCCC4)cc1	i
O=C1CCN(Cc2cccc(F)c2)CCCCCCN1	i

Screening data: PubChem, National Center for Advancing Translational Sciences (NCATS)
